# Lassa entry inh – inhibitors of Lassa virus binding or cell entry. Lassa virus pseudotype entry inhibition, cell reporter; control for the full effect not named in the record. Potency, µM (doses to about 37.9 µM), for the others: at the top dose activity change, negative = inhibition, usual class: inhibitors. actives 1.2% (n = 300,000). AID 540256; active means well fitted inhibition curve with a large enough effect; inconclusive means small, poorly fitted or top-dose-only effect, or effect the other way; inactive means flat fitted curve, though single readings scatter; tested in HEK293 cells; note: % is set by controls: 0 for no effect and ±100 for the full control effect; nearly all actives have a fitted effect of over 50% in size; luciferase read-out
# RE007 growth inh – less growth of the S. pombe RE007 Vpr strain. S. pombe RE007 Vpr strain, BacTiter-Glo ATP luminescence, 24 h; control for the full effect not named in the record. Potency, µM (top dose mostly 92.2 µM), for inactives: top-dose activity change, negative = less growth. AID 651644. actives 0.21% (n = 360,000); active = well fitted falling curve with a large enough effect; inconclusive = small, poorly fitted or top-dose-only effect; inactive = no such curve, though single readings can be large or run the other way;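 note: % is set by controls: 0 for no effect and ±100 for the full control effect; nearly all actives have a fitted effect of over 50% in size; the assay follows cell death caused by Vpr and the record does not say whether a fall means rescue or toxicity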
#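 Fission yeast RE007 carrying one integrated HIV-1 vpr copy, seeded at OD 0.01 in PMG+AL medium with 23 nL pinned compound. Grown 24 h at 30 degrees; viability read by BacTiter-Glo luminescence after 5 min.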
# NS1 inh – inhibitors of influenza NS1 protein function. S. cerevisiae slowed by influenza A NS1, growth recovery by OD600. Potency, µM (series often up to 46.1 µM), for the others: top-dose activity, positive = more growth. actives 0.4% (n = 270,000). AID 2326; note: actives are rising curves; nearly all actives have a fitted effect of over 50% in size
#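 Recovery from NS1-induced slow growth read by OD600 in budding yeast switched to galactose assay medium (pH 6.0, -URA) at 1:100 dilution. Compound 23 nl per well; the matching strain lacking NS1 serves as control.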
# Cruzain inh Det – inhibitors of Trypanosoma cruzi cruzain with detergent | purified cruzain, Z-FR-AMC fluorescence, 0.01% Triton | actives 0.43% (n = 200,000) | Potency, µM, inactives show max response, negative = inhibition, actives largely listed as inhibitors | P25779 | AID 1478; active = well fitted curve in the direction sought with a large enough effect; inconclusive = small, poorly fitted or top-dose-only effect, or another doubt; inactive = no such curve, though single readings can be large; an effect the other way counts as inactive or inconclusive;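 note: plate controls were neutral wells for no effect and buffer without enzyme for full effect; nearly all actives have a fitted effect of over 40% in size; top concentration of the series not given in the record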
# Target sequence (P25779 123-467 limits assumed): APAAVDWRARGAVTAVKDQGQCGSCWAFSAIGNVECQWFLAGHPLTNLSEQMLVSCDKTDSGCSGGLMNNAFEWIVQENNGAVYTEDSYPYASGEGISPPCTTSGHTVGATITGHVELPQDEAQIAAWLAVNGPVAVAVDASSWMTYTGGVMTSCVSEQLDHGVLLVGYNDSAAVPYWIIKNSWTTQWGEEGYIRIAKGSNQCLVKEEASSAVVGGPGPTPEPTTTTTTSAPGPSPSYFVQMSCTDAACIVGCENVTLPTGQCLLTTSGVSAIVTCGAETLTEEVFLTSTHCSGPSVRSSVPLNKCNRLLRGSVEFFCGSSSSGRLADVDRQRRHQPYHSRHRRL
#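 Compounds were screened in titration against cruzain (1.5 nM) with 0.01% Triton X-100 to counter colloidal aggregation. Activity was the AMC fluorescence increase over 60 s after adding 2 uM Z-FR-AMC at pH 5.5.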
# Cruzain inh noDet – blocks cruzain activity in detergent-free assay; purified cruzain, Z-FR-AMC fluorescence, no detergent; Potency, µM, inactives show max response, negative = inhibition, hits mostly inhibitors; actives 2.3% (n = 200,000); active = well fitted curve in the direction sought with a large enough effect; inconclusive = small, poorly fitted or top-dose-only effect, or another doubt; inactive = no such curve, though single readings can be large; an effect the other way counts as inactive or inconclusive;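 note: plate controls were enzyme without inhibitor for no effect and buffer without enzyme for full effect; nearly all actives have a fitted effect of over 40% in size; top concentration of the series not given in the record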
#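 Purified cruzain at 1.5 nM, pre-incubated 15 min with compound at room temperature in 100 mM sodium acetate pH 5.5, 5 mM DTT, 0.00005% Triton X-100. Reaction started with 2 uM Z-FR-AMC; AMC fluorescence increase over 60 s gives rate.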
# StopGo reporter – FMDV 2A StopGo reporter, luciferase signal; human cells with a luciferase reporter of 2A StopGo recoding; control for the full effect not named in the record; Potency, µM (titrated, usually from 57.9 µM), for the others: top-dose signal change, negative = less light; actives 1.2% (n = 410,000); active = well fitted falling curve with a large enough effect; inconclusive = small, poorly fitted or top-dose-only effect; inactive = no such curve, though single readings can be large or run the other way; tested in HEK293T cells; note: % is set by controls: 0 for no effect and ±100 for the full control effect; nearly all actives have a fitted effect of over 45% in size; luciferase light after 4 h
# Marburg entry inh – Marburg virus entry inhibition | Marburg virus pseudotyped entry inhibition, cell reporter; control for the full effect not named in the record; about a third of the inactives were read at about 46 µM | Potency, µM (highest dose often 37.8 µM), for the others: at the highest dose activity change, negative = inhibition, most hits filed as inhibitors | actives 1.8% (n = 300,000); active = well fitted inhibition curve with a large enough effect; inconclusive = small, poorly fitted or top-dose-only effect, or effect the other way; inactive = flat fitted curve, though single readings scatter; tested in HEK293 cells; about a fifth of its hits are not listed in these tables; note: % is set by controls: 0 for no effect and ±100 for the full control effect; luciferase read-out
# SARS PLP yeast – blocks SARS-CoV papain-like protease in a yeast assay; S. cerevisiae expressing SARS-CoV PLpro, growth rescue; control for the full effect not named in the record; Potency, µM (doses to about 32.9 µM), without a hit: at the highest dose activity, positive = growth rescue; actives 0.19% (n = 330,000); note: 0% is about no effect; nearly all actives have a fitted effect of over 55% in size; growth read by luminescence after 48 h
# Active calls of the source: *; ? = inconclusive; . = not tested or not shown; [ ] = remark or other dose. Unless noted, calls come from the whole dose curve; as a rule, active means well fitted rising curve with a large enough effect; inconclusive means small, poorly fitted or top-dose-only effect; inactive means no such curve, though single readings can be large or run the other way. Potency is the fitted concentration of half-maximal effect.
# The opening 3 compounds as a preview:
SMILES,Lassa entry inh,RE007 growth inh,NS1 inh,Cruzain inh Det,Cruzain inh noDet,StopGo reporter,Marburg entry inh,SARS PLP yeast
COc1ccc(OC)c(C2=NOC(C(=O)Nc3ccc4c(c3)OCCO4)C2)c1 (centres undefined),18%[46.1 µM],-12%,-5%,.,.,5%,-12%[46.1 µM],0%
O=c1cc(N2CCCCCC2)[nH]c(=O)n1-c1ccc(Cl)cc1,.,-2%,3%,.,.,-1%,.,4%
CS(=O)(=O)n1nc(-c2ccco2)nc1N,25%[46.1 µM],-11%,6%,.,.,2%,?,0%

# All compounds of this part (from the top)
SMILES,Lassa entry inh,RE007 growth inh,NS1 inh,Cruzain inh Det,Cruzain inh noDet,StopGo reporter,Marburg entry inh,SARS PLP yeast
COc1ccc(OC)c(C2=NOC(C(=O)Nc3ccc4c(c3)OCCO4)C2)c1 (centres undefined),18%[46.1 µM],-12%,-5%,.,.,5%,-12%[46.1 µM],0%
O=c1cc(N2CCCCCC2)[nH]c(=O)n1-c1ccc(Cl)cc1,.,-2%,3%,.,.,-1%,.,4%
CS(=O)(=O)n1nc(-c2ccco2)nc1N,25%[46.1 µM],-11%,6%,.,.,2%,?,0%
CCC(=NN=C(CC)c1ccccc1O)c1ccccc1O,14%,10%,.,.,.,?,4%,.
CN(C)/C=C1/Nc2ccccc2C1=O,0%,-19%,-89%,-4.2%,-4%,68%[activator],-2%[46.1 µM],-6%
S=c1[nH]cc(-c2ccccc2)[nH]1,.,13%,13%,.,.,40%[activator],.,-1%
CCOC(=O)c1cc(C(=O)c2cccs2)n2ccc(C(C)=O)cc12,3%,2%,-11%,-4.5%,?,-23%,0%,-1%
Cc1c(-c2csc(N)n2)c2ccccc2n1C,?,1%,11%,.,.,26%,-8%[46.1 µM],1%
O=C(Cn1nc(-c2ccc(Cl)cc2)ccc1=O)NCCN1CCOCC1,.,-8%,-1%,-4.3%,2%,-10%,.,-7%
CSc1ccc(C(C(C(=O)c2cccs2)N2CCOCC2)N2CCOCC2)cc1 (centres undefined),-13%,-6%,-18%,-3.1%,1%,-14%,?,-5%
CC(C)N(C)C(=O)C(=O)c1cccn1-c1cccc(Cl)c1C#N,.,-7%,4%,.,.,-10%,.,-2%
O=C(NCc1ccco1)C1CC(=O)N(CCc2ccccc2)C1 (centres undefined),-2%,11%,?,3.3%,-6%,5%,0%,16%
O=C(NC1CCCc2ccccc21)C1CCCN(S(=O)(=O)c2cnc[nH]2)C1 (centres undefined),.,5%,-7%,0.0%,-2%,-1%,.,4%
CSc1ccc(/C=c2\s/c(=C\C(=O)C(C)(C)C)n(CC(=O)NCCC3=CCCCC3)c2=O)cc1,.,8%,5%,-3.1%,3.2µM*,-20%,.,24%
CCOC(=O)c1ccccc1NS(=O)(=O)c1ccc(OCC)cc1,2.6µM*,-7%,-17%,-2.8%,-6%,-18%,?,-4%
O=C(c1ccc(C(F)(F)F)cc1)C1CCCN(C(=O)CCc2ccncc2)C1 (centres undefined),-30%[46.1 µM],-2%,3%,.,.,?,?,-3%
O=C(CCC(=O)N1CCSc2ccccc21)NCc1ccccc1Cl,.,.,.,-2.6%,-4%,-14%,-16%[46.1 µM],.
C=CCn1c(O)c(N=NC(=O)c2ccccc2NS(=O)(=O)c2cccs2)c2ccccc21,13%,25%,12%,0.3%,?,-3%,?,-19%
O=C(CSc1nnc2c(Cl)cc(Cl)cn12)N1CCN(c2ccc(F)cc2)CC1,0%,5%,8%,-2.1%,18%,-18%,18%,-3%
CN(CC(=O)NCCN1CCN(c2ccccc2)CC1)S(=O)(=O)c1ccc2c(c1)CCC(=O)N2,.,-5%,-8%,3.5%,-4%,-24%,.,5%
COc1cc(C(=O)NCC(=O)NC(C)c2ccc(-n3ccnc3)cc2)cc(OC)c1OC (centres undefined),8%,-3%,.,.,.,-5%,?,-2%
Cc1cccc(OC(C)C(=O)Nc2ccc(N3CCCCC3)cc2)c1 (centres undefined),-16%,-1%,.,.,.,-5%,1%,4%
O=C(CC1CCCCC1)N=C1SC2CS(=O)(=O)CC2N1c1ccccc1 (centres undefined),.,-3%,6%,.,.,-10%,.,9%
COc1ccc(N(C(=O)c2cc3ccccc3oc2=O)C2C=CS(=O)(=O)C2)cc1 (centres undefined),.,20%,.,.,.,4%,-2%[46.1 µM],1%
N#Cc1ccc(NC(=O)COC(=O)CNC(=O)C2CCCCC2)cc1,14%,-3%,5%,4µM*,4µM*,-6%,2%[46.1 µM],24%
O=c1[nH]cnc2c1sc1nc(C(F)F)cc(-c3ccccc3)c12,-13%,-9%,.,.,.,-7%,5%,3%
C=C(C)COc1ccc(-c2nc(N)nc(C)c2Oc2ccccc2OC)c(O)c1,2%,-1%,-68%,-4.7%,-4%,-21%,?,-16%
CCOC(=O)c1ccc(CN2C(=O)c3ccccc3S2(=O)=O)cc1,25%[46.1 µM],21%,-32%,.,.,16%,5%[46.1 µM],-7%
O=C(CCCn1c(SCc2cc(=O)n3cc(Cl)ccc3n2)nc2ccccc2c1=O)NCC1CCCO1 (centres undefined),.,10%,4%,.,.,-17%,.,1%
O=C(O)c1cccc2c1Oc1ccccc1S2(=O)=O,3%,3%,.,.,.,-1%,1%,.
CC(C)(C)SCCNC(=O)c1ccc(CN2CCc3ccccc3C2)cc1,-24%,0%,0%,.,.,0%,-18%,3%
CC[C@@]12C(=O)N(c3ccc(C)cc3)C(=O)N1[C@H](c1ccc(OC)cc1)[C@@H]1C(=O)N(C(C)(C)C)C(=O)[C@@H]12,.,3%,-4%,.,.,16%,.,5%
CCOc1cc2c(cc1OCC)-n1cccc1C(c1ccccc1OC)NC2 (centres undefined),-33%[46.1 µM],-20%,-4%,.,.,?,?,-4%
Cn1nc(C(=O)Nc2ccc(Br)cc2)cc1C(=O)Nc1ccc(Br)cc1,.,-16%,9%,.,.,-12%,.,7%
COc1cc(Cl)c(C)cc1NC(C)C(=O)Nc1cc(C(F)(F)F)ccc1N1CCOCC1 (centres undefined),3%,2%,16%,-7.6%,-17%,?,?,19%
CCC(=O)Nc1cc(=O)[nH]c2ncnn12,3%,13%,9%,3.5%,5%,16%,1%,-3%
COc1ccc(-c2nnn(CC(=O)N(Cc3ccccc3Cl)C(C(=O)NCC3CCCO3)c3ccco3)n2)cc1 (centres undefined),-20%,6%,14%,4.9%,?,33%[activator],0%,-3%
COc1cc(-c2cc(C(=O)NCc3ccco3)c3ccccc3n2)cc(OC)c1OC,-24%,-5%,1%,.,.,-19%,?,5%
CN(CCc1ccccn1)C(=O)c1cccnc1Oc1ccc(Cl)cc1,23%[46.1 µM],7%,-1%,.,.,21%,?,0%
CCN1CCN(C/C(C)=C/c2ccccc2)CC1,.,-6%,-3%,.,.,-10%,.,1%
COc1ccc(OC)c(NC(=O)c2cc(S(=O)(=O)N(C)C)ccc2N2CCCC2)c1,-7%,3%,.,.,.,15%,?,3%
CCOc1ccc(CCN2C(=O)c3ccc(C(=O)O)cc3C2=O)cc1OCC,.,1%,-2%,.,.,-17%,.,-2%
CCCCCNC(=O)N[C@H](C(=O)O)C(C)C,?,1%,-12%,-1.2%,1%,-11%,-63%,26%
Cc1nn(Cc2c(Cl)cccc2Cl)c(Cl)c1/C=C/C(=O)OCC(=O)NCC(F)(F)F,-6%,0%,1%,-4.2%,-8%,?,-9%,1%
O=C(NC1CCCC1)C(c1ccco1)N(C(=O)c1ccco1)c1ccccc1 (centres undefined),.,16%,2%,.,.,7%,?,-5%

# Two neighbouring compounds out of the list so far:
SMILES,Lassa entry inh,RE007 growth inh,NS1 inh,Cruzain inh Det,Cruzain inh noDet,StopGo reporter,Marburg entry inh,SARS PLP yeast
CC(C)(C)SCCNC(=O)c1ccc(CN2CCc3ccccc3C2)cc1,-24%,0%,0%,.,.,0%,-18%,3%
CC[C@@]12C(=O)N(c3ccc(C)cc3)C(=O)N1[C@H](c1ccc(OC)cc1)[C@@H]1C(=O)N(C(C)(C)C)C(=O)[C@@H]12,.,3%,-4%,.,.,16%,.,5%

# Carrying on:
SMILES,Lassa entry inh,RE007 growth inh,NS1 inh,Cruzain inh Det,Cruzain inh noDet,StopGo reporter,Marburg entry inh,SARS PLP yeast
C=CCN1C(=S)N[C@@H]2CS(=O)(=O)C[C@@H]21,-7%,1%,-3%,.,.,9%,8%,0%
Cc1nc2cc3nc(C)sc3cc2s1,19%,-10%,-34%,6.9%,-2%,13%,?,-9%
CCOc1ccc2nc(NS(=O)(=O)c3ccc4c(c3)n(C)c(=O)n4C)sc2c1,-8%,-2%,0%,?,?,96%[activator],5%,-2%
CCOC(=O)c1cc2c3ccccc3n(CC)c2nc1N,9%,-4%,-8%,-3.1%,17%,-10%,-2%,9%
COc1ccc(N=Nc2cnc(C)nc2-c2ccccc2)cc1,-16%,3%,-8%,-5.6%,10%,-25%,-1%,-1%
CCc1cccc(NC(=O)CCCN2C(=O)C(c3ccccc3)Oc3cccnc32)c1 (centres undefined),.,6%,-36%,.,.,-25%,.,-6%
CCOC(=O)N1CCc2c(sc3c2c(=O)n(CCc2ccccc2)c(=O)n3CC(=O)Nc2cccc(C)c2)C1,0%[46.1 µM],.,.,-0.1%,4%,-13%,-32%[46.1 µM],.
CCOc1ccc(-c2c(C(=O)N/N=C/c3cccs3)nnn2-c2nonc2N)cc1,.,6%,6%,.,.,0%,.,1%
Cc1cc(C)c2c(CC(=O)O)coc2c1,13%,-1%,-51%,3.9%,-12%,-2%,14%,-1%
O=c1c2cc3c(nc2ncn1Cc1ccc(Cl)cc1)CCCC3,25%[46.1 µM],.,.,-0.9%,-6%,22%,.,.
N#C/C(=C/Nc1ccccc1C(=O)O)C(N)=O,.,1%,1%,.,.,-2%,.,-1%
COC(CNC(=O)c1ccc2c(c1)nc(C)n2-c1ccc(F)c(F)c1)OC,27%[14.3 µM],2%,3%,-0.8%,3%,12%,15%,-15%
